RecA splice inh = inhibitors of M. tuberculosis RecA intein splicing. P9WHJ3. inhibition, %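 (about 9 µM by stock and volumes)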. 0.75% of 290,000 active. cell-free RecA intein splicing, fluorescence. AID 2221; in the data active = inhibition above about 30%;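 note: 0% = vehicle wells and 100% = reference inhibitor control wells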
Target sequence (P9WHJ3 whole entry, looked up, canonical isoform): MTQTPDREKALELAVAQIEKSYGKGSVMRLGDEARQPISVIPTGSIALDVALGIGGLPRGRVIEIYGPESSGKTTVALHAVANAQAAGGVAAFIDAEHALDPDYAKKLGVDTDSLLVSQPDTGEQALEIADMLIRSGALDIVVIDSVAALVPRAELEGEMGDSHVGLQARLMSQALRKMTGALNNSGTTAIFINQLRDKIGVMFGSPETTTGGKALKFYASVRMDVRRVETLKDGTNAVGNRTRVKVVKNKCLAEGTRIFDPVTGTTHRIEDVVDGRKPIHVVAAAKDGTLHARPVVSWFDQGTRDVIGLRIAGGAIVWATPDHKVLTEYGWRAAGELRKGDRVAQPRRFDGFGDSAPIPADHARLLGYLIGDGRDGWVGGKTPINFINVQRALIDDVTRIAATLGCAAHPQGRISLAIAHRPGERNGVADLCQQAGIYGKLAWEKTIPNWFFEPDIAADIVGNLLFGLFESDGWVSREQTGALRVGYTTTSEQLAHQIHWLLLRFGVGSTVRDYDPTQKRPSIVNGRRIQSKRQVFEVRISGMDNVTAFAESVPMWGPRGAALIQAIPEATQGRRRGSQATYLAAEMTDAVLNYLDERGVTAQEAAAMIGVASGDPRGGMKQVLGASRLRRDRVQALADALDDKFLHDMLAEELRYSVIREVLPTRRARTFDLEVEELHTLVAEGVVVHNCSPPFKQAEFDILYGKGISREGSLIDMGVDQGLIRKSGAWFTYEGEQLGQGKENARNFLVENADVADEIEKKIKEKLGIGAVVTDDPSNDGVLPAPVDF
Mtb betalactam = beta-lactam sensitization of Mtb H37Rv; M. tuberculosis H37Rv growth with meropenem, percent inhibition; hits of this screen are not shown here; inhibition, % at 25 µM; 0.27% of 330,000 active; AID 434955;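 active = about 74% or more and at least 40 points above the plate without the antibiotic, then above 30% in a dose series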;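 note: growth measured after seven days incubation then overnight dye step; 0% = bacteria only wells and 100% = bacteria with antibiotic; twin plates without the antibiotic show which effects depend on it; some results filed as inactive read as strong as hits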
Mtb growth = M. tuberculosis H37Rv growth inhibitors, H37Rv strain (AID 1626). inhibition, % at 10 µM, or IC50 in µM where a hit was titrated. M. tuberculosis H37Rv growth inhibition; higher % means a stronger effect. 0.95% of 220,000 active;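 active = confirmed in a dose series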;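 note: bacteria incubated seven days before Alamar blue readout; 0% = bacteria only wells and 100% = bacteria with antibiotic wells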
YopH inh = inhibitors of Yersinia enterocolitica YopH tyrosine phosphatase. fluorescence Ex485/Em525. inhibition, %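 (about 10 µM by stock and volumes)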. 0.16% of 140,000 active. AID 898;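 active = inhibition of 50% or more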;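 note: controls were vehicle for no effect and minimum signal wells for full effect; inactives centre near -20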
Arbovirus inh = arbovirus infection inhibition | 0.37% of 200,000 active | AID 1251 | arbovirus infection cell-based antiviral screen | inhibition, % at 10 µM;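 active = inhibition from about 30%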;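 note: bluetongue infection of BSR cells; cell survival read as ATP light after 72 h; 0% = infected wells without compound and 100% = uninfected wells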
Arbovirus inh repeat = second read-out of Arbovirus inh, no call of its own (marks repeat the call); inhibition, %; measured here: 10K subset replicate screen; many hits read low in the repeat;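 first of two repeat runs on a subset; 0% = infected and 100% = uninfected wells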
* marks the source's active call; other numbers are inactive results; i = inactive; nt = not tested or not shown; & = joins results of further samples; ! = repeats disagree.

SMILES	RecA splice inh	Mtb betalactam	Mtb growth	YopH inh	Arbovirus inh	others
CN(C)c1cc(NC(=O)CNC(C)(C)CC(C)(C)C)c2ccccc2n1	0.0	-9	-1%	nt	27
CSc1cccc(NC(=O)CSc2ncccc2C(=O)Oc2cccc([N+](=O)[O-])c2)c1	7.1	5	2%	9	2
O=C1NNC(c2ccccc2)=N/C1=C\c1ccco1	5.0	1	-9%	nt	nt
S=C(NCc1ccco1)N1CCN(C(c2ccccc2)c2ccccc2)CC1	1.7	17	5%	-52	15
O=C(NCCCn1ccnc1)c1cc(-c2ccc3c(c2)OCO3)on1	0.7	-9	0%	-16	-36
Cc1c(C(=O)N2CCOCC2)sc2ncnc(N3CCc4ccccc4C3)c12	5.3	0	-1%	-7	3
COc1cccc(-n2c(CN3CCN(C)CC3)nc3ccc([N+](=O)[O-])cc3c2=O)c1	-1.1	-1	5%	-34	5
Nc1nc(-c2ccc(Cl)cc2Cl)cn1N	-2.4	3	-12%	-24	3
CCN1CCN(C(=O)c2cc(-c3cccnc3)nc3ccc(Br)cc23)CC1	-0.7	2	-8%	1	1
Cc1cccc(N2CCN(C(=O)c3ccc4c(c3)OCCO4)CC2C)c1 (stereo not drawn)	1.7	-4	-5%	nt	-1
COc1cn(-c2ccccc2)nc1C(=O)Nc1ccccc1	0.6	10	nt	nt	nt
CCC(=NCc1cccnc1)c1c(O)n(Cc2ccccc2)c(=O)[nH]c1=O	-1.8	4	1%	-25	6
COCCNC(=O)CCCCCN1C(=O)CCC1=O	1.5	-6	-13%	10	7
Cc1ccc2cc(CCNC(=O)c3cccs3)c(=O)[nH]c2c1C	0.3	-5	nt	-25	5
CCN(CC)CCOc1ccc(/C(=C(/Cl)c2ccccc2)c2ccccc2)cc1	32*!	100&97	41%	nt	-30
CN1CCN(S(=O)(=O)c2ccc(Cl)cc2)CC1	0.1	6	nt	nt	nt
COc1ccccc1Oc1ccc(S(=O)(=O)Nc2cccnc2)cc1	0.1	1	-13%	-27	-5
CCc1c(C)nc(SCC(=O)N2CCc3ccccc32)[nH]c1=O	-1.3	nt	-9%	-35	3
CC1(C)CC(Nc2ccc(Nc3ccccc3)cc2)CC(C)(C)N1	4.7	2	13%	nt	nt
COc1cccc(/C=N/NC(=O)c2c(-c3ccccc3)noc2C)c1O	0.4	30	-5%	-41	-23
Cc1cccc(C2CC(c3ccc(F)cc3)Nc3nc(N)nn32)c1 (stereo not drawn)	1.5	4	-1%	2	-3	Arbovirus inh repeat=0
CCN(CC)CCNc1ncnc2c1sc1nc(N3CCOCC3)c3c(c12)CC(C)(C)SC3	nt	7	9%	-10	-31
O=C(Nc1ccc(Cl)cc1)Nc1nnc(/C=C/c2ccccc2)s1	-2.0	-3	12%	nt	nt
Cc1cc(C(=O)N/N=C/c2c(C)n(C)c3ccccc23)n[nH]1	1.7	0	-2%	-28	7
COc1ccc(C(=O)CN2C(=O)NC3(CCCc4ccccc43)C2=O)c(OC)c1 (stereo not drawn)	-7.1	-7	nt	nt	nt

Reprinted from the part before: 4 entries; new compounds follow.
SMILES	RecA splice inh	Mtb betalactam	Mtb growth	YopH inh	Arbovirus inh	others
CCN(CC)CCNc1ncnc2c1sc1nc(N3CCOCC3)c3c(c12)CC(C)(C)SC3	nt	7	9%	-10	-31
O=C(Nc1ccc(Cl)cc1)Nc1nnc(/C=C/c2ccccc2)s1	-2.0	-3	12%	nt	nt
Cc1cc(C(=O)N/N=C/c2c(C)n(C)c3ccccc23)n[nH]1	1.7	0	-2%	-28	7
COc1ccc(C(=O)CN2C(=O)NC3(CCCc4ccccc43)C2=O)c(OC)c1 (stereo not drawn)	-7.1	-7	nt	nt	nt
N#CCCn1c(C2CCCCC2)nc2ccccc21	-1.2	-11	-5%	-17	6
COc1ccc(C2CC(=O)c3cnc(NC(=O)c4ccccc4OC)nc3C2)c(OC)c1 (stereo not drawn)	1.9	87	-4%	11	13
Cc1cccc(Nc2c([N+](=O)[O-])cc(C(=O)N3CC(=O)Nc4ccccc43)cc2[N+](=O)[O-])c1	nt	70	28%	nt	8
CCOc1ccc(C(=O)OCC(=O)c2c(N)n(C)c(=O)n(C)c2=O)cc1OCC	0.0	-4	10%	-17	10
Cc1onc(-c2ccccc2)c1C(=O)Nc1ccc(S(=O)(=O)N2CCOCC2)cc1	0.5	-8	nt	nt	nt
O=C(Nc1ccccc1N1CCOCC1)c1cccnc1	0.7	-6	-4%	nt	21
Nc1nc(-c2nc3ccccc3[nH]2)cs1	-3.2	0	-4%	-5	1
COc1cc(NC(=O)c2cccs2)c(C(=O)OCC(=O)NC(C)c2ccccc2)cc1OC (stereo not drawn)	-1.8	7	-5%	2	-9
COc1ccc(/C=C(\NC(=O)c2ccc(OC)c(OC)c2)C(=O)N2CCN(C)CC2)cc1	-0.8	2	nt	nt	nt
COC(=O)c1cc(C(=O)Nc2ccc(S(N)(=O)=O)cc2)cc([N+](=O)[O-])c1	-0.8	60	-2%	nt	0
Cn1c(N)c(C(=O)COc2ccc(C#N)cc2)c(=O)n(C)c1=O	3.3	-9	1%	nt	7
COc1ccc(C(C)NC(=O)c2ccncc2)cc1 (stereo not drawn)	1.1	2	nt	nt	nt
CC(=O)c1ccc(/C=C/c2nc3ccccc3n2C)o1	i	10	4%	nt	nt
Cc1cc(O)c(/C=N/OCc2ccc(Cl)cc2Cl)c(=O)o1	0.3	-1	0%	nt	1
COC(=O)c1ccc(S(=O)(=O)NNC(=O)c2ccc(S(=O)(=O)N3CCCCC3)cc2)cc1	-0.8	-4	-5%	-39	6
CCOC(=O)c1c(C)[nH]c(C(=O)COC(=O)/C=C/c2ccc(OC(F)F)cc2)c1C	1.1	5	3%	-10	19
CCOc1ccc(NC(=O)N2CCC(c3ccc(C)cc3)C2)cc1 (stereo not drawn)	1.0	27	2%	-6	1
Cc1c(C)n(CCc2ccccc2)c2ncnc(NCCO)c12	0.1	2	nt	nt	nt
O=C(NN=C1CCCCCC1)c1cc(-c2ccccc2)nc2ccccc12	2.2	18	-4%	-30	-17
NNC(=O)/C(=C/c1cccs1)NC(=O)c1ccccc1Cl	1.3	-7	5%	nt	-9
CCc1nnc(NC(=O)CSc2nnc(COc3ccccc3)n2-c2ccc(C)cc2)s1	0.0	-8	-4%	-66	-4
CCN(CC)N=Nc1ccc(S(=O)(=O)N2CCSC2C(=O)O)cc1 (stereo not drawn)	-0.4	-2	-10%	nt	4
O=C(Nc1ccnc(-c2cccnc2)n1)c1cccc(Cl)c1Cl	-0.3	7	-9%	-18	-6
Cc1nc(N2CCN(C(=O)CCC(=O)O)CC2)c2c(C)c(C)sc2n1	-1.0	2	-14%	-32	2
O=C(CC(=O)N/N=C/c1cccs1)NCc1ccccc1	-2.0	5	1%	nt	0

Among those listed so far, these contain a cyano group.
SMILES	RecA splice inh	Mtb betalactam	Mtb growth	YopH inh	Arbovirus inh	others
N#CCCn1c(C2CCCCC2)nc2ccccc21	-1.2	-11	-5%	-17	6
Cn1c(N)c(C(=O)COc2ccc(C#N)cc2)c(=O)n(C)c1=O	3.3	-9	1%	nt	7

Additional structures follow:
SMILES	RecA splice inh	Mtb betalactam	Mtb growth	YopH inh	Arbovirus inh	others
Cc1ccnn1CCC(=O)O	-0.2	-6	-1%	nt	nt
CC(COc1ccccc1)N(CCCl)Cc1ccccc1 (stereo not drawn)	2.1	0	-1%	-54	-1
CCCCCN1CN(S(=O)(=O)c2cccs2)c2nc3ccccc3nc21	-0.7	-4	5%	nt	nt
CCCCc1nc2sc3c(=O)n(N)cnc3c2c2c1CCC2	-1.2	-4	-1%	nt	-4
O=[N+]([O-])c1ccc(CN2CCN(c3ccc4ccccc4n3)CC2)cc1	-0.8	21	3%	nt	-1
CC(C)CNC(=O)COC(=O)c1cncc(Br)c1	nt	-1	3%	-17	-3
O=C1CC(c2ccc(F)cc2)CC2=C1C(c1ccc([N+](=O)[O-])o1)Nc1ccccc1N2 (stereo not drawn)	6.8	59	8%	nt	nt
O=C(c1cccc(NS(=O)(=O)c2ccc(F)cc2)c1)N1CCN(c2ccccc2)CC1	0.4	-5	nt	nt	nt
COC(=O)c1ccc(CO/N=C/c2ccc(OC)cc2OC)cc1	1.1	96	nt	nt	nt
CCCOc1cccc(C(=O)Nc2ccc(CN3CCOCC3)cc2)c1	-1.2	1	nt	nt	nt
O=C(c1c[nH]cc1-c1ccccc1)c1cccc2ccccc12	3.1	1	-3%	-17	-3
Cc1cc(C)cc(OC(C)C(=O)Nc2ccc(S(=O)(=O)Nc3cc(C)nc(C)n3)cc2)c1 (stereo not drawn)	1.3	-4	nt	nt	nt
O=[N+]([O-])c1ccc(Nc2cccc(F)c2)nc1	1.6	9	-3%	nt	-3
CCn1nccc1C(=O)Nc1cc(Cl)cc(Cl)c1	2.3	12	2%	-10	6
CC(=O)N1c2ccc(S(=O)(=O)N3CCCCC3)cc2CC1C (stereo not drawn)	-4.4	7	nt	nt	nt
O=C1c2ccccc2C(O)(Cc2ccccc2)N1C1CCCCC1 (stereo not drawn)	8.8	16	4%	-21	-4
CCN(CC)c1nc(N)n(CCSC(=S)N(C)C)c(=O)n1	0.1	-4	10%	nt	nt
Cc1ccc(S(=O)(=O)NCCC(=O)NC2CCN(Cc3ccccc3)CC2)cc1	2.5	-14	nt	nt	nt
CCn1c(=O)cc(OCC(=O)NC2CC2)c2ccccc21	-2.9	-1	nt	nt	nt
COC(=O)c1cc(NS(=O)(=O)c2ccc(Cl)c(N3C(=O)c4ccc(C(=O)O)cc4C3=O)c2)cc(C(=O)OC)c1	-0.5	0	-22%	nt	nt
O=C(NCc1ccco1)c1ccc(Cn2c(=S)[nH]c3ccccc3c2=O)cc1	-2.1	3	0%	nt	-3
O=C(/C=C\Nc1ccc(Br)cc1)c1cccnc1	-12	9	-2%	-20	-27
COc1ccc(N(CC(=O)N2CCN(C)CC2)S(C)(=O)=O)cc1OC	-1.7	-1	-2%	-42	4	Arbovirus inh repeat=3
CC1CN(c2ccc(NC(=S)NNCCC#N)cc2)CC(C)O1 (stereo not drawn)	-5.3	-6	-6%	nt	nt
CCOc1ccccc1CNS(=O)(=O)c1ccc(-c2cnc(C3CC3)o2)cc1	7.3	-7	nt	nt	nt
The listing continues.
SMILES	RecA splice inh	Mtb betalactam	Mtb growth	YopH inh	Arbovirus inh	others
CC(=O)c1ccc(NC(=S)NN2C(C)CCCC2C)cc1 (stereo not drawn)	0.8	-1	2%	nt	-1
COc1cc(OC)c2c(C)cc(=O)oc2c1C(CCN1CCOCC1)c1ccc2c(c1)OCO2 (stereo not drawn)	5.7	1	-1%	nt	nt
CCC(Oc1ccccc1)C(=O)Nc1nnc(S(=O)(=O)N2CCCC2)s1 (stereo not drawn)	2.9	8	nt	nt	nt
C/C(=N\NC(=O)c1ccc(Cl)cc1)c1cccnc1	-17	-2	nt	nt	nt
CCN(CC)S(=O)(=O)c1ccc(OC)c(NC(=O)C2CC(=O)N(c3ccc4c(c3)OCCO4)C2)c1 (stereo not drawn)	1.9	-15	nt	nt	nt
CC(=O)c1nn(-c2ccccc2)cc1C(=O)c1cccc(Br)c1	0.5	13	5%	-27	-14
COc1cc(OC)c2cc(C(=O)N[C@H](C(=O)N3CCC[C@H]3C(=O)O)C(C)C)n(C)c2c1	-0.7	-1	nt	nt	nt
CCOc1ccc(NC(=O)Nc2cc(C(C)C)ccc2C)cc1	0.5	nt	1%	nt	nt
Cc1cc(=O)oc2cc(OCC(=O)NC(Cc3c[nH]c4ccc(O)cc34)C(=O)O)c(Cl)cc12 (stereo not drawn)	-4.4	-10	nt	nt	nt
Cc1ccc(S(=O)(=O)N2CCN(C(=O)CSc3ncc(C(F)(F)F)cc3Cl)CC2)cc1	8.9	11	9%	-4	-9
CCOc1ccc(OCCC(=O)N2CCN(S(=O)(=O)c3cccc(F)c3)CC2)cc1	3.1	-13	nt	nt	nt
CC1CCN(C(=O)COc2ccc3ccccc3c2Br)CC1	0.0	79	nt	nt	nt
COc1ccc(-n2ncc3c2CC(C)(C)CC3NC(=O)CSc2ccccn2)cc1 (stereo not drawn)	4.7	4	nt	nt	nt
CC(=O)Nc1ccc2c(c1)CC1(C(=O)N(C)C(=O)N(C)C1=O)C1CCCN21 (stereo not drawn)	-25	-2	-8%	-24	6
CC[C@@]1(O)C(=O)OCc2c1cc1n(c2=O)Cc2cc3c(NC(=O)CN)cccc3nc2-1	-79	6	7%	nt	nt
O=C1CCCN1CCC(=O)N1CCCC(Nc2ccc(F)cc2)C1 (stereo not drawn)	-1.8	-15	nt	nt	nt
COc1ccc(OCC(O)CNC(=O)/C=C/c2cccc([N+](=O)[O-])c2)cc1 (stereo not drawn)	0.7	-1	8%	nt	0
Cc1cccc(N2C(=O)CN(Cc3ccccc3)C2=S)c1	2.3	17	nt	nt	nt
CCOc1ccccc1CNC(=O)c1cn(C)c(=O)c2c1c1ccccc1n2C	-1.4	7	8%	nt	-12
COC(=O)c1ccc(SCc2cnc(Cl)s2)cc1	3.6	-2	2%	-7	5
O=C(O)CC(NCc1ccco1)C(=O)OCC1CCCO1 (stereo not drawn)	0.8	-7	-7%	-21	10

Assay outcomes (PubChem)

Only part of the results is shown (hit frequency here may not be typical).
